High-throughput results (PubChem)
gsp agonist: agonists of gsp mutant (McCune-Albright syndrome) | 340,000 tested, 0.13% active | Potency, µM (titrated, usually from 76.9 µM), for the others: at the highest dose activation (cAMP increase), actives largely listed as activators | gsp mutant cells, cAMP HTRF, 30 min; control for the full effect not named in the record; active = well fitted activation curve with a large enough effect; inconclusive = small, poorly fitted or top-dose-only effect, or another doubt; inactive = no such curve, though single readings can be large or run the other way; cell line not stated here;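 further: phosphodiesterase inhibitor Ro 20-1724 added with compounds to block cAMP breakdown; potency means the concentration at half of the fitted maximal effect; nearly all actives have a fitted effect of over 60% in size; about a fifth of the inactives were tested at one dose only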
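Cells stably selected in G418 were plated at 2000/well, grown 16-24 hr, then given compounds in DMSO with the PDE inhibitor […] (300 uM solution added) for 30 min at 37C; cAMP was read by HTRF.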
D2 ag: activates the human D2 dopamine receptor; 360,000 tested, 0.084% active; DiscoveRx PathHunter D2 beta-arrestin, luminescence, 90 min; 100% = 57 uM dopamine signal; activation, % (concentration not given with the values); P14416; in the data active = activation above about 40%; inconclusive = about 15% to 40%; inactive = below about 15%; further: compound concentration not given in the record; the text of the record calls up to 30% inactive
Target sequence (P14416 whole entry, looked up): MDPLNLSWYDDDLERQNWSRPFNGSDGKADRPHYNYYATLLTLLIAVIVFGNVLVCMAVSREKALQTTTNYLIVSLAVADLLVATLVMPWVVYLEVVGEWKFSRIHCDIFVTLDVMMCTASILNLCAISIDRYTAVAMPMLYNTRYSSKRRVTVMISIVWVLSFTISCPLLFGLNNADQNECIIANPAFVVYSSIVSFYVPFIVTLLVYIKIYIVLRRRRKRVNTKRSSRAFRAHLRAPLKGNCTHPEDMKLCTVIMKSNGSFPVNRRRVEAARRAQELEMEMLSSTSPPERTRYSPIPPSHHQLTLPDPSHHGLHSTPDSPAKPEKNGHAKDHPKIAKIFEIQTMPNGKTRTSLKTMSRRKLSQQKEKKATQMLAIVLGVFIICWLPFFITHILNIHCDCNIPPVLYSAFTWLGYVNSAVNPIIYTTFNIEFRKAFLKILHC
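DiscoveRx PathHunter D2 beta-arrestin cells (2,100/well) attached overnight, then compound-stimulated 90 min at 37 C in HBSS/10 mM HEPES/0.1% Tween-20 buffer; beta-galactosidase complementation read by luminescence after 1 h at ambient temperature. Dopamine 57 uM final (EC100) as control.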
Six1-Eya2 blk: Six1/Eya2 interaction inhibition; AlphaScreen GST-Six1/His-Eya2 binding, biochemical; hits give low values; control for the full effect not named in the record; AID 651725; activity change, % (test concentration not listed); 360,000 tested, 0.56% active; Q15475+O00167; in the data active = activity change below about -65%; inconclusive = about -30% to -65%; inactive = above about -30%; further: on the % scale 0 is the no-effect control and ±100 the full control effect; compound concentration not given in the record
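AlphaScreen with GST-Six1 and His-Eya2 (5X mix: 250 nM and 500 nM), glutathione donor and nickel acceptor beads; buffer 50 mM Tris pH 8.0, 300 mM NaCl, 1 mM TCEP; 1 h at 37 C in the dark.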
CtBP-E1A inh: inhibitors of CtBP/E1A interaction. 340,000 tested, 0.49% active. AID 651724. AlphaScreen GST-E1A/His-CtBP binding, 1536-well; hits give low values; control for the full effect not named in the record. activity change, % (test concentration not listed); in the data active means activity change below about -65%; inconclusive means about -30% to -65%; inactive means above about -30%; further: on the % scale 0 is the no-effect control and ±100 the full control effect; compound concentration not given in the record
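AlphaScreen with 125 nM GST-E1A and 125 nM His-CtBP (5X stocks) in Tris pH 8.0, 300 mM NaCl, BSA, Tween 20, TCEP. Compounds preincubated 2 h at 37 deg C, then glutathione donor/nickel acceptor beads added for 1 h at 37 deg C in dark.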
D2 PAM: positive allosteric modulators of human D2 dopamine receptor; P14416; DiscoveRx D2 beta-arrestin cells, luminescence, 90 min; 100% = 57 uM dopamine signal; potentiation, % (test concentration not listed); 360,000 tested, 0.23% active; active = potentiation of 50% or more; inconclusive = 30% to 50%; inactive = 30% or less;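 further: compound concentration not given in the record; tested on top of an EC20 dose of dopamine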
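D2 cells co-treated with compound plus 50 nM dopamine (EC20) for 90 min at 37 deg C to detect potentiation. Beta-arrestin recruitment was read as enzyme-fragment luminescence after 1 h at ambient temperature. Full response was set by 57 uM dopamine.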
gsp antag: antagonists of gsp mutant (McCune-Albright syndrome); gsp-mutant cells, cAMP HTRF, 30 min; control for the full effect not named in the record; Potency, µM (titrated, usually from 76.9 µM), without a hit: top-dose activity change, negative = inhibition, usual class: inhibitors; 340,000 tested, 0.4% active; active = falling curve of any shape with a large fitted effect; inconclusive = falling curve, mostly with a smaller effect; inactive = flat or rising curve; cell line not stated here;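 further: intracellular cAMP measured with PDE inhibitor Ro 20-1724 present during compound exposure; potency means the concentration at half of the fitted maximal effect; on the % scale 0 is the no-effect control and ±100 the full control effect; nearly all actives have a fitted effect of over 65% in size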
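HTRF cAMP measurement after 30 min RT detection following 30 min, 37C compound treatment alongside […] (added as 300 uM solution) in G418-selected cells seeded at 2000/well and grown 16–24 h.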
Starred values were filed as active, the others as inactive; ? = inconclusive; / = not tested or not shown; [ ] = remark or other dose. Random draw from the library. Share with any hit: about 1.4%.

SMILES | D2 PAM | gsp antag | CtBP-E1A inh | D2 ag | gsp agonist | Six1-Eya2 blk
CCOC(=O)c1c(C)n(C)c2ccc(OCC(O)CN3C(=O)c4ccccc4S3(=O)=O)cc12 (centres undefined) | -7 | 14% | -21 | -4.6 | 0% | -13
Cn1cnc2c1c(=O)n(Cc1cccc(Br)c1)c(=O)n2C | -11 | 14% | -3 | -4.0 | -21% | -3
CC(C)(C)c1ccc(/C=C2\SC(=O)N(CCNC(=O)c3cccc(S(=O)(=O)N4CCOCC4)c3)C2=O)cc1 | -1 | -2% | -15 | -1.2 | 22% | -18
O=C(NC1CCSc2ccccc21)c1c(F)cccc1Cl (centres undefined) | 6 | 18% | -2 | -0.9 | -18% | 3
COC(=O)c1c(C)[nH]c(O)c1C=Nc1ccc(C(C)C)cc1 | 0 | 2% | -13 | -3.9 | 3%[15.4 µM] | -12
CCOC(=O)C1=C(C)NC(SCC(=O)Nc2cc(C)on2)=C(C#N)C1c1cccs1 (centres undefined) | -2 | ? | 1 | 2.9 | -11% | 1
Cc1ccc(NC(=O)COc2nsnc2N2CCOCC2)cc1Cl | -3 | -16% | -4 | -2.1 | 1% | -9
CC1(C(=O)NCc2ccccc2Br)CCN1C(=O)CCc1ccc(Cl)cc1Cl (centres undefined) | 1 | / | 1 | -6.3 | / | 0
CC(C)Cc1nc2sc3c(=O)[nH]cnc3c2c2c1CCCC2 | 4 | 1% | 3 | 3.0 | ? | -2
Cc1ccccc1NC(=S)NNC(=O)c1ccoc1C | -17 | -12% | 5 | -5.7 | -81%[inhibitor] | 2
Cc1ccc(CNC(=O)C2CCC(CNc3nc(=S)[nH]c4ccccc34)CC2)cc1 (centres undefined) | -9 | 4% | -17 | -4.6 | 1%[15.4 µM] | 5
CCOC(=O)c1cccc(NC(=O)CCn2nnc3ccccc32)c1 | -10 | -6% | -1 | -2.8 | 20% | 1
CCCCN(CC)CCNc1c(N2CCN(C(=O)OCC)CC2)c(=O)c1=O | -13 | 9% | 6 | -2.7 | -27% | 0
CC(Sc1nnc(Cc2cccs2)n1C1CCCCC1)C(=O)NCc1ccco1 (centres undefined) | -17 | -7% | -2 | -2.5 | 10% | -14
CC(C)Cc1cc(C(=O)N2CCC(N3CCC(C(=O)N4CCOCC4)CC3)CC2)n[nH]1 | 0 | 10% | -22 | -1.9 | -28% | 4
Cc1ccc(C(c2c(C)nn(-c3ccccc3)c2N)c2c(C)nn(-c3ccccc3)c2N)cc1 | -23 | -10% | 3 | -0.8 | -5% | -16
O=C(CSC(=S)N1CCCC1)c1cc(Br)cc(Br)c1O | -4 | 13% | 9 | 0.9 | -2%[15.4 µM] | -5
CCSc1nc(O)cc(=O)[nH]1 | -4 | 4% | / | -2.7 | -4% | 1
CCOc1ccc(CCNC(=O)C2CCN(c3nnc(-n4cccc4)s3)CC2)cc1OCC | 6 | -7% | -2 | -3.1 | -4% | 14
C[C@H]1CN=C(N(C)C)N1CCC1CCCC1 | -5 | 7% | -8 | -4.0 | / | -13
Cn1c(-c2cccc(F)c2)nc2c1c(=O)[nH]c(=O)n2Cc1ccccc1 | -3 | 3% | 0 | 4.0 | -17%[15.4 µM] | 2
CCCn1c(C)cc(C)c(C#N)c1=O | -18 | -5% | 13 | -3.4 | 14% | 2
Cc1ccc(S(=O)(=O)N(C)Cc2ccccc2)cc1C(=O)N1CCCCC1 | -15 | -15% | -3 | -3.6 | -46% | 4
CCn1nnc(NC(=O)Cc2ccc(Cl)cc2)n1 | 1 | -19% | -2 | -0.7 | 13%[15.4 µM] | 0
COc1ccc(CC(=O)NCC2CCCN(Cc3ccc(OC)cc3F)C2)cc1 (centres undefined) | -23 | 0% | / | -0.6 | -4% | -2
NS(=O)(=O)c1ccc(NC(=O)CSc2ccc3ccccc3n2)cc1 | -9 | 5% | -2 | 0.7 | 8% | 2
Cc1ccc(NC(=O)c2nn(C34CC5CC(CC(C5)C3)C4)cc2[N+](=O)[O-])cc1 | -11 | -15% | -6 | -2.4 | 12% | -23
COc1ccccc1CNC(=O)C(=O)Nc1ccc(C(=O)N2CCC(C)CC2)cc1 | -2 | -11% | 5 | 1.0 | -25% | -10
CCOc1ncccc1C(=O)Nc1ccc(C)cn1 | -3 | 13% | 4 | 1.3 | 8% | 3
COC(=O)CSc1nnc(NC(=O)/C=C\c2ccc3c(c2)OCO3)s1 | -2 | 10% | 2 | 1.5 | -14% | 5
Cc1ccccc1-c1ccc(=O)n(CC(=O)Nc2ccc(C(=O)N3CCCC3)cc2)n1 | -6 | -21% | -7 | 0.6 | 5% | 0
Cn1c(SCC(=O)N2c3ccccc3Sc3ccccc32)nnc1-c1ccco1 | -18 | -5% | -6 | -2.9 | 27% | -17
CCCCC(=O)N(C)c1c(CC)nc2c(OCC3CCCCC3)cccn12 | -10 | / | -1 | -4.9 | / | -1
O=C(O)Cc1ccc2oc(-c3cccnc3)nc2c1 | -4 | -10% | 3 | -4.8 | -14%[15.4 µM] | -9
O=S(=O)(/C=C/c1ccccc1)N1CCN(c2ccccc2)CC1 | -1 | 5% | 9 | 0.9 | ? | 8
O=[N+]([O-])c1ccc(CSC2=NCCS2)cc1 | -3 | 6% | -1 | -2.5 | 22% | 2
O=C1C2C3C=CC(C3)C2C(=O)N1Nc1ccc([N+](=O)[O-])cc1[N+](=O)[O-] (centres undefined) | -5 | 6% | -6 | -10 | -5% | 0
CNS(=O)(=O)c1cccc(C(=O)OCc2cc(C(C)=O)ccc2OC)c1 | -12 | / | -9 | 0.1 | 0%[15.4 µM] | 10
O=c1[nH]c(/C=C/c2ccccc2OC(F)F)nc2c1cnn2-c1ccccc1 | -21 | 20% | 4 | -1.9 | 4% | -2
O=C(Cn1[nH]c(=O)c2ccccc2c1=O)NCCN1C(=O)S/C(=C\c2ccccc2)C1=O | 0 | ? | -4 | 0.7 | -22% | 2
Cc1ccc(C)c(-n2nnnc2Sc2nc([N+](=O)[O-])nn2C)c1 | -1 | 11% | 0 | 2.8 | ? | 1
CCc1cccc(CC)c1N1C(=O)CSCC1=O | 0 | / | 0 | -1.5 | -94%[inhibitor] | -3
Cc1[nH]c(=O)[nH]c(=O)c1S(=O)(=O)Nc1ccc(F)cc1F | -1 | 7% | 1 | 0.2 | -23% | 8
CC1CN(C(=O)Nc2ccc3c(c2)OCO3)CC(C)O1 (centres undefined) | 4 | 5% | 35 | -0.6 | -54%[inhibitor] | 17
CCOc1ccc(NC(=O)C/C(N)=N/O)cc1 | -6 | 9% | 0 | -0.5 | 4% | -1
COc1ccc(CNC(=O)C[C@H]2C(=O)N(c3ccccc3)C[C@@H]2Cc2ccccc2)cc1 | -6 | -17% | 1 | -0.9 | / | 0
CCCCSc1nnc(NC(=O)CCc2ccccc2)s1 | -13 | 13% | 1 | -0.5 | ? | -2
N#C/C(=C(/O)c1ccco1)c1nc2ccccc2[nH]1 | -2 | 3% | -6 | 0.7 | 16% | -14
Cc1ccc2nc(N3CCN(S(=O)(=O)c4ccc(C)c(Cl)c4)CC3)c(C#N)cc2c1 | -5 | -8% | 50 | -1.9 | 32% | 0
CC1=NN(C(N)=S)C(=O)C1N=Nc1cc(Cl)ccc1Cl (centres undefined) | 0 | -2% | 5 | 0.6 | -10% | 9

3 entries already listed, ordered by the number in gsp agonist, falling.
Structure	D2 PAM	CtBP-E1A inh	D2 ag	gsp agonist	Six1-Eya2 blk
O=C1C2C3C=CC(C3)C2C(=O)N1Nc1ccc([N+](=O)[O-])cc1[N+](=O)[O-] (centres undefined)	-5	-6	-10	-5%	0
CC1=NN(C(N)=S)C(=O)C1N=Nc1cc(Cl)ccc1Cl (centres undefined)	0	5	0.6	-10%	9
COC(=O)CSc1nnc(NC(=O)/C=C\c2ccc3c(c2)OCO3)s1	-2	2	1.5	-14%	5

Following part
SMILES | D2 PAM | gsp antag | CtBP-E1A inh | D2 ag | gsp agonist | Six1-Eya2 blk
Cc1cccc(C(=O)N2CCC(Cc3ccccc3)CC2)c1[N+](=O)[O-] | 3 | -22% | 5 | -0.7 | -20% | -9
CCc1cc(OCCN(C)C)ccc1Cl | -16 | 8% | 13 | -14 | 5%[15.4 µM] | 15
O=C1OC(Nc2ccc(F)c([N+](=O)[O-])c2)c2ccccc21 (centres undefined) | -2 | 10% | 5 | -6.6 | -7%[15.4 µM] | 5
COc1ccc(N(C(=O)c2ccccc2C)S(=O)(=O)c2cccs2)cc1 | -15 | 10% | -4 | -1.8 | -3% | -6
Cc1cc(C)nc(Sc2ncnc3c2oc2ccccc23)n1 | -8 | 14% | 4 | -0.9 | -42%[inhibitor] | 6
CC(C)C[C@H]1CN=C(N(C)C)N1CC1CCCCCC1 | -8 | 11% | 0 | -5.3 | / | -1
Cc1ccc(CNC(=O)c2ccc(Cn3nc(C)c(Cl)c3C)o2)cc1 | -2 | ? | 0 | -2.2 | 41% | -7
COc1ccc(C(=O)NC(C(=O)NCC(=O)Nc2c(C)cccc2C)C(C)C)cc1 (centres undefined) | -4 | -22% | / | -5.4 | -7% | 16
CC(C)CC(C(=O)NC(C)(C)C)N(Cc1cccs1)C(=O)c1snc(C(N)=O)c1N (centres undefined) | -36 | -9% | / | -6.7 | -5% | -4
CCOC(=O)C1CCN(Cc2ccc(OC)cc2OC)CC1 | -15 | 5% | -5 | 0.2 | 0% | 0
CCc1c(C)nc(Nc2nc(C)c3cc(OC)ccc3n2)[nH]c1=O | -7 | 24% | -27 | -3.6 | -24% | ?
CC(=O)NC1(c2ccccc2)CCN(C(=O)N2CCOCC2)CC1 | -3 | -1% | 1 | -1.5 | -45%[inhibitor] | 6
COc1ccc(NC(=O)C2Cc3c(-c4cccc(C(C)=O)c4)ccnc3O2)cc1 (centres undefined) | -18 | / | -18 | -3.6 | / | -17
N#Cc1ccc(NC(=O)CSc2n[nH]c(=O)n2C2CC2)cc1 | -1 | 3% | 5 | 4.7 | 9% | -2
CC(C)(C)OC(=O)N/N=C\c1ccc([N+](=O)[O-])s1 | -1 | -5% | -1 | 7.4 | -11% | 5
CCCc1nc(SCC(=O)Nc2ccccc2OC)c2c(=O)n(C)c(=O)n(C)c2n1 | -2 | 17% | 3 | -1.5 | 0% | -3
c1ccc2c(c1)ncn2CCCOc1ccc2c(c1)CCC2 | -2 | 28µM* | -1 | 0.9 | -18% | -1
N#C/C(=C/c1ccc(Sc2nc3ccccc3[nH]2)o1)c1ccccc1F | -13 | ? | -4 | -1.9 | 4% | -1

Exported with values under each structure: entries from further up.
Below each compound: D2 PAM	gsp antag	CtBP-E1A inh	D2 ag	gsp agonist	Six1-Eya2 blk
CC(=O)NC1(c2ccccc2)CCN(C(=O)N2CCOCC2)CC1
  -3	-1%	1	-1.5	-45%[inhibitor]	6
CC(C)C[C@H]1CN=C(N(C)C)N1CC1CCCCCC1
  -8	11%	0	-5.3	/	-1
COc1ccc(NC(=O)C2Cc3c(-c4cccc(C(C)=O)c4)ccnc3O2)cc1 (centres undefined)
  -18	/	-18	-3.6	/	-17
CC(C)(C)OC(=O)N/N=C\c1ccc([N+](=O)[O-])s1
  -1	-5%	-1	7.4	-11%	5
